Screening data: PubChem BioAssay, National Center for Advancing Translational Sciences (NCATS)
gsp agonist – activates gsp, the McCune-Albright syndrome mutation; gsp mutant cells, cAMP HTRF, 30 min; control for the full effect not named in the record; Potency, µM (series often up to 76.9 µM), for inactives: at the top dose activation (cAMP increase), hits mostly activators; actives 0.13% (n = 340,000); active = well fitted activation curve with a large enough effect; inconclusive = small, poorly fitted or top-dose-only effect, or another doubt; inactive = no such curve, though single readings can be large or run the other way; cell line not stated here;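 also: phosphodiesterase inhibitor Ro 20-1724 added with compounds to block cAMP breakdown; potency is read from the fitted curve at half-maximal effect; nearly all actives have a fitted effect of over 60% in size; about a fifth of the inactives were tested at one dose only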
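Cells in DMEM/10% FBS with G418 were pretreated with compounds in DMSO plus […] (300 uM stock) for 30 min at 37C. cAMP was measured by HTRF (cAMP-d2 plus anti-cAMP antibody-K) after 30 min at room temperature.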
TRPML1 inh – blocks the human TRPML1 channel; TRPML1-inducible cells, Ca2+ dye fluorescence, FDSS; active compounds read low; inhibition of EC80 agonist-evoked calcium signal; actives 0.02% (n = 390,000); activity change, negative = inhibition, % (no concentration beside the values); Q9GZU1; in the data active means activity change below about -50%; inconclusive means about -30% to -50%; inactive means above about -30%;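 also: stimulus is agonist 54-4 at its EC80 concentration; % is scaled to controls: 0 for no effect and ±100 for the full control effect; compound concentration not given in the record; the text of the record puts the active cut at -80%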
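TRPML1-DL cells, Tet-induced overnight (~16 h, 37 °C) at 1,500 cells/well, were loaded with Ca8 no-wash dye plus quencher for 45-90 min at room temperature. Compounds were pinned during FDSS kinetic reading; agonist 54-4 at EC80 (4 uM final) then added.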
gsp antag – gsp mutant antagonism. gsp-mutant cells, cAMP HTRF, 30 min; control for the full effect not named in the record. Potency, µM (highest dose often 76.9 µM), for the others: top-dose activity change, negative = inhibition, usual class: inhibitors. actives 0.4% (n = 340,000); active = falling curve of any shape with a large fitted effect; inconclusive = falling curve, mostly with a smaller effect; inactive = flat or rising curve; cell line not stated here;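 also: intracellular cAMP measured with PDE inhibitor Ro 20-1724 present during compound exposure; potency is read from the fitted curve at half-maximal effect; % is scaled to controls: 0 for no effect and ±100 for the full control effect; nearly all actives have a fitted effect of over 65% in size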
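HTRF cAMP measurement after 30 min RT detection following 30 min, 37C compound treatment alongside […] (added as 300 uM solution) in G418-selected cells seeded at 2000/well and grown 16–24 h.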
Menin MLL FP FL – menin-MLL binding inhibition, fluorescein peptide. Fluorescence polarization, fluorescein-MLL peptide displacement from menin. FP activity change, % at 61.4 µM. 290,000 tested, under 10 active. AID 1766; inconclusive = falling polarisation curve, or a change in total fluorescence; inactive = total fluorescence flat and polarisation flat or rising; no compound was filed as active; the % refers to the polarisation; negative = inhibition;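 also: % of control where 0% means no effect; inhibitors lower the polarisation; unlabelled MLL peptide was the positive control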
TRPV1 potentiator – potentiators of human vanilloid receptor 1 (TRPV1) | actives 0.02% (n = 320,000) | potentiation, % at 8.33 µM | TRPV1-expressing cells, Fluo-8 calcium influx, capsaicin EC20 potentiation; host cell line not named in the record; control for the full effect not named in the record | AID 540277; active means potentiation above 80%; inconclusive means 30% to 80%; inactive means below 30%; also: 0% is about no effect
Target sequence (Q8NER1 whole entry, looked up): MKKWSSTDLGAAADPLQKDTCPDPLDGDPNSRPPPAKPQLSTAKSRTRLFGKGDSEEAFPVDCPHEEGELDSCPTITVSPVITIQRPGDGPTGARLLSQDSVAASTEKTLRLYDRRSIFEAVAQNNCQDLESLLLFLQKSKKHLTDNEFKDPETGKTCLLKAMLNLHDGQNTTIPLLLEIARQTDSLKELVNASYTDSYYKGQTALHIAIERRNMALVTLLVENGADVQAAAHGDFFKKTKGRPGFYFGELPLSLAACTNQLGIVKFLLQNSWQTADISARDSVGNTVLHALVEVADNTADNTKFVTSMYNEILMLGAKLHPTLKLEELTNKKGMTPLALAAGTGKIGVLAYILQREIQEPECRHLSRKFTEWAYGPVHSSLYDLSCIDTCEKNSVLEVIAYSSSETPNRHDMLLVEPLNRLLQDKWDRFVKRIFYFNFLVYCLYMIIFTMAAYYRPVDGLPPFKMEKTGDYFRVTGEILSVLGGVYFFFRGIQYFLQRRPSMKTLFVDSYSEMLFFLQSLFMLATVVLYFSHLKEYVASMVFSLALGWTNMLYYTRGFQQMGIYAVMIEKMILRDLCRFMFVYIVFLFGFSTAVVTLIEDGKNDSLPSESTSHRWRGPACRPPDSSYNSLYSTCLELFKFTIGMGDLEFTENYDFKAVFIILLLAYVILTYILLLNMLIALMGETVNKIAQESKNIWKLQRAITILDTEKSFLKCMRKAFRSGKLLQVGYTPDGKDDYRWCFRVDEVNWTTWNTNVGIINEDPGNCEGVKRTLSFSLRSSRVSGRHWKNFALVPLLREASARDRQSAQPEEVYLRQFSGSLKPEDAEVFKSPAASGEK
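Fluo-8 calcium influx in TRPV1-expressing cells, kinetic read (ex 480/em 520 nm). Compound added and read 3 min for agonist activity, followed by capsaicin at EC20 final and 2 min further read for enhancement.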
ClpP mod – qHTS Assay for Activators of ClpP | Potency, µM (titrated, usually from 57.5 µM), for inactives: at the top dose activity change, negative = active | actives 1.9% (n = 340,000) | ATP-dependent Clp protease proteolytic subunit (Bacillus subtilis (strain 168)), P80244 | purified B. subtilis ClpP, FRET peptide cleavage, 20 min | AID 651965, 2013; active = well fitted falling curve with a large enough effect; inconclusive = small, poorly fitted or top-dose-only effect; inactive = no such curve, though single readings can be large or run the other way; also: potency is read from the fitted curve at half-maximal effect; the source files actives as falling curves though it sought activators and does not explain the sign; nearly all actives have a fitted effect of over 65% in size; many hits overshoot -100%
Target sequence (P80244 whole entry, looked up): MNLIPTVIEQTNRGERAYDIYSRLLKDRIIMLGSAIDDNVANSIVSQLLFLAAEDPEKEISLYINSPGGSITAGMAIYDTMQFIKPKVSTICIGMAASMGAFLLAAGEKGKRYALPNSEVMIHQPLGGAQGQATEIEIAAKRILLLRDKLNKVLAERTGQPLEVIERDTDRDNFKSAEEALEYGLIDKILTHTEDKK
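ClpP 10 microg/mL final, pH 8 Tris/KCl buffer with BSA, glycerol, Tween-20; compound pinned in; FRET-FV substrate; RT 20 min; Ex320/Em430; ΔFRET vs ADEP 5.8 microM, DMSO, no enzyme.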
Sfp inh – inhibitors of Bacillus subtilis Sfp phosphopantetheinyl transferase; Q9F4F7; Biochemical Sfp PPTase activity, qHTS; Potency, µM, for inactives: max response, negative = inhibition, most hits filed as inhibitors; actives 3.5% (n = 310,000); active = well fitted inhibition curve with a large enough effect; inconclusive = small, poorly fitted or top-dose-only effect, or another doubt; inactive = no such curve, though single readings can be large or run the other way;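 also: the enzyme is Sfp with the accession as filed and its product quenches rhodamine fluorescence; potency is read from the fitted curve at half-maximal effect; 0% = enzyme reaction without inhibitor and -100% = no enzyme wells; top concentration of the series not given in the record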
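Sfp 15 nM + cpd, 15 min RT; start w/ rhodamine-CoA 5 uM, BHQ-2-YbbR 12.5 uM (final); 50 mM Hepes pH 7.6, 10 mM MgCl2, 0.01% NP-40, 0.01% BSA; read 525/598 nm at 0 and 30 min.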
Active calls of the source: *; ? = inconclusive; nt = not tested or not shown; & = joins results of further samples; [ ] = dose if it differs, or a comment.

SMILES	gsp agonist	TRPML1 inh	gsp antag	Menin MLL FP FL	TRPV1 potentiator	ClpP mod	Sfp inh
Cc1ccnc(NS(=O)(=O)c2ccc(NC(=O)c3ccc(Cl)cc3[N+](=O)[O-])cc2)n1	-4%	-6	-2%	-3.0	-27	-3.1%	13%
CCOc1cc(/C=C2/SC(=S)N(CC(=O)O)C2=O)ccc1OC(=O)c1cccs1	-25%	32	-7%	?	26	-2.7%	4.5µM*
CC(=O)Nc1ccc(NC(=O)CSc2nnc(C)n2-c2ccccc2)cc1	-10%	14	5%	-1.9	-5	-1.2%	19%
Cn1c(O)c(N=NC(=O)Cn2ccc(C(F)(F)F)n2)c2ccccc21	?	-1	7%	2.5	-6	1.3%	10%
CC1=C(C(=O)OC(C)C)C(c2cccs2)N2C(=O)CCSC2=N1 (stereo not drawn)	?	-10	9%	4.8	-7	0.4%	8%
CCOn1c(=O)c(=O)n(OCc2ccccc2)c2ccccc21	-1%	22	-12%	-0.9	-6	-0.1%	-1%
CCC(C)(C)C1CCc2c(sc(NC(=O)c3cccs3)c2C(N)=O)C1 (stereo not drawn)	22%	1	-7%	4.1	22	?	8%
COC(=O)c1ccc(CSc2nc(C)nc3sc(C)c(C)c23)o1	-33%	18	17%	3.9	-7	-0.3%	25µM*
COC(=O)c1cn(NC(=O)c2ccc(OC)c(OC)c2)c(=O)c2ccccc12	-1%	18	8%	1.8	?	29%	1%
CCC(=O)Nc1nc2c(OC)ccc(C)c2s1	-49%[inhibitor]	23	-4%	4.3	8	-6.4%	10%
Cc1ccc(C(c2sc3ncnn3c2O)N2CCC(C)CC2)cc1 (stereo not drawn)	-9%	12	-3%	2.1	25	-1.5%	10%
Cc1csc(NC(=O)COc2ccc3c(c2)CCC3)n1	-7%	0	11%	nt	-9	1.7%	nt
COC(=O)/C=C/c1cnc2ccccc2c1	25%	-10	-4%	-1.0	1	nt	-11%
COc1ccc(Cn2cc3c(-c4ccc(F)cc4)nnc-3c3cc(OC)c(OC)cc32)cc1	-1%	17	1%	-0.8	29	-26%	-8%
COCC(=O)Nc1ccc2c(c1)[C@@H]1C[C@H](CC(=O)NCc3ccccc3)O[C@@H](CO)[C@@H]1O2	-70%[inhibitor]	16	nt	nt	nt	-1.9%	nt
Cc1ccc(S(=O)(=O)SC/C=C/CSS(=O)(=O)c2ccc(C)cc2)cc1	?	2	?	nt	nt	-22%	nt
CN(C)/C=C(\C=O)c1ncc(C(F)(F)F)cc1Cl	23%[15.4 µM]	-1	nt	-0.2	-20	nt	-21%
CCN(CC)CCOCCOc1cc(C)c(Cl)c(C)c1	-28%	-7	3%	5.3	-1	0.2%	11%
O=C1NC(c2ccc(F)cc2)Oc2ccccc21 (stereo not drawn)	-11%	nt	7%	-4.7	-1	-22%	14%
Cc1onc(-c2ccccc2)c1C(=O)OCC(=O)Nc1ccc2c(c1)OCO2	0%	-5	-13%	-3.4	12	-1.1%	-4%

Reformatted field by field: two of the compounds above
CC1=C(C(=O)OC(C)C)C(c2cccs2)N2C(=O)CCSC2=N1 (stereo not drawn)
- gsp agonist = ?
- TRPML1 inh = -10
- gsp antag = 9%
- Menin MLL FP FL = 4.8
- TRPV1 potentiator = -7
- ClpP mod = 0.4%
- Sfp inh = 8%
CCC(=O)Nc1nc2c(OC)ccc(C)c2s1
- gsp agonist = -49%[inhibitor]
- TRPML1 inh = 23
- gsp antag = -4%
- Menin MLL FP FL = 4.3
- TRPV1 potentiator = 8
- ClpP mod = -6.4%
- Sfp inh = 10%

2 entries drawn at random from those above, as already listed:
SMILES	gsp agonist	TRPML1 inh	gsp antag	Menin MLL FP FL	TRPV1 potentiator	ClpP mod	Sfp inh
Cc1ccc(C(c2sc3ncnn3c2O)N2CCC(C)CC2)cc1 (stereo not drawn)	-9%	12	-3%	2.1	25	-1.5%	10%
CCN(CC)CCOCCOc1cc(C)c(Cl)c(C)c1	-28%	-7	3%	5.3	-1	0.2%	11%

(list continues)
SMILES	gsp agonist	TRPML1 inh	gsp antag	Menin MLL FP FL	TRPV1 potentiator	ClpP mod	Sfp inh
CN(CCOC(=O)/C=C/c1ccccc1)C(C)(C)C	-9%	-28	21%	-0.1	-2	11%	11%
C=CCOc1nc2c(c(=O)n(C)c(=O)n2C)n1Cc1ccccc1	7%[15.4 µM]	3	13%	2.2	-13	nt	4%
O=C(COc1ccc(Cl)cc1Cl)NCCCN1CCOCC1	-16%	4	10%	-0.8	-7	-0.1%	5%
Cc1ccc(S(=O)(=O)NC2=NCCCCC2)cc1	-4%	-5	-14%	0.5	6	-1.4%	0%
CSc1ncc(Cl)c(C(=O)Nc2cccc(C)c2)n1	21%	32	-5%	0.1	-35	-1.2%	-7%
COc1cc(CNC(C)(C)CO)cc(Br)c1OCc1ccccc1	15%[15.4 µM]	20	11%	-1.4	-19	nt	5%
COc1ccc(OC(=O)CCCN2C(=O)c3ccccc3C2=O)cc1	?	-5	0%	3.5	nt	-0.5%	14%
CCOC(=O)C1CCN(S(=O)(=O)c2cn(C)c(=O)n(C)c2=O)CC1	-28%	-1	5%	2.7	4	0.1%	?
Cc1ccc(NC(=O)COC(=O)CCc2c(C)nc3ncnn3c2C)cc1C	?	-16	4%	nt	nt	nt	nt
O=C1CN(C(=O)c2ccc(Cl)c([N+](=O)[O-])c2)c2ccccc2N1	-66%[inhibitor]	-12	-1%	4.0	-2	nt	3%
O=C1NC[C@H](c2ccccc2)N(CC2CCCCC2)C1=O	26%	0	3%	-1.7	0	-1.0%	5%
O=C(CSc1nnc(-c2ccc(Cl)cc2)n1CC1CCCO1)NC1CCS(=O)(=O)C1 (stereo not drawn)	12%	-4	4%	-0.1	-4	-3.6%	16%
O=C(Nc1cccc2nsnc12)c1cccs1	9%&15%	31&-1	-8%&8%	3.2&6.0	-13&14	?	-3%&4%
COc1ccc2nc(NC(=O)C3CCN(S(=O)(=O)c4cccnc4)CC3)sc2c1	-24%	5	-16%	-0.8	1	-0.9%	13%
N#CCCN=C(NS(=O)(=O)c1ccccc1)c1ccccc1	17%[15.4 µM]	2	6%	4.8	2	nt	17%
Cc1nc(C)c(CCNC(=O)c2cccc(Cl)c2)s1	2%	5	7%	-1.8	-8	-5.5%	-2%
CC(Oc1ccc(Cl)cc1)C(=O)N1CCCc2ccccc21 (stereo not drawn)	?	5	3%	-0.5	-8	-5.8%	3%
Cc1ccc(CN2C(=O)/C(=C\c3ccc(C(=O)NCc4cccnc4)cc3)Oc3ccccc32)cc1	nt	nt	nt	3.6	6	nt	-14%
CCOC(=O)C(CC)n1cnc2sc3c(c2c1=O)CCC3 (stereo not drawn)	0%	0	-5%	-0.3	6	0.3%	2%
COc1cc(/C=C/C(=O)OCC(=O)Nc2ccc3c(c2)OCO3)ccc1O	?	-3	-9%	nt	nt	-20%	nt
COCCCn1cn[nH]c1=S	-38%[inhibitor]	-18	16%	4.6	9	1.1%	?
COC(C)c1oc2c(C)c3oc(=O)cc(C)c3cc2c1C (stereo not drawn)	-1%[15.4 µM]	4	0%	nt	nt	-3.4%	nt
CC1Cn2c(nnc2-c2cccc(N)c2)S1 (stereo not drawn)	22%	-1	3%	-0.3	-1	3.9%	-5%
CCC1Oc2ccc(C)cc2N(CC(=O)NCc2cccc(OC)c2)C1=O (stereo not drawn)	-5%	16	-9%	-2.2	nt	-2.3%	-4%
Cn1c(SCC(=O)Nc2nnc(-c3ccccc3)o2)nnc1C1CC1	5%	1	4%	nt	0	-0.4%	?
O=c1c2ccccc2nc2n1CCC2O (stereo not drawn)	nt	nt	2%	-3.2	-1	-3.2%	9%
O=C(NC1CCN(C(=S)NCCc2ccccc2)CC1)C1CCCCC1	?	3	-4%	-0.9	-12	0.0%	?
COC(=O)[C@@]1(Cc2ccccc2)[C@H]2C(=O)N(Cc3ccccc3)C(=O)[C@H]2[C@H]2CN=C(SCC(=O)c3ccccc3)N21	nt	9	-4%	nt	nt	-0.6%	nt
CCc1nc(CN(C)C(=O)C2CCC(=O)N(Cc3cccc(F)c3)C2)no1 (stereo not drawn)	-18%	17	13%	1.1	-10	2.4%	12%
Cc1cc(OCc2nnc(SCC(=O)OC3CCCCC3)o2)ccc1Cl	-11%	-2	4%	0.4	1	-1.9%	-2%
Brc1cc(Br)c2ncnc(N3CCCCC3)c2c1	14µM*	6	3%	1.2	-10	-0.6%	2%
NS(=O)(=O)c1ccc(NC(=O)COc2ccc(Cl)cc2)cc1	?	2	10%	-1.4	-9	1.5%	8%
COCCn1c(Cc2ccccc2)nnc1SCC(=O)NC1CC1	17%	-18	4%	nt	9	nt	-2%
CCn1c(=O)oc2cc(NC(=O)CCl)ccc21	8%[15.4 µM]	1	nt	1.8	5	nt	13%
O=C(CCN1CCCCC1=O)NC1CCCN(Cc2ccc(Cl)cc2)C1 (stereo not drawn)	-42%[inhibitor]	4	5%	nt	-16	1.9%	9%
Cc1ccc(C)c(NC(=O)CSc2nc(N)c(NC(=O)c3cccs3)c(=O)[nH]2)c1	-4%	6	0%	-1.1	17	-2.8%	-4%
COc1ccc(CCNC(=O)C(=O)NCC2CCCO2)cc1OC (stereo not drawn)	1%	14	10%	0.8	-18	-0.7%	-16%
Cc1ccc(Oc2nc3c(c(=O)n(C)c(=O)n3C)n2C)cc1C	-1%	27	-1%	-2.9	6	1.7%	9%
O=C(NC1C2CC3CC(C2)CC1C3)C1CC1 (stereo not drawn)	-9%	-7	5%	0.3	4	-0.6%	11%
C[C@H]1CN([C@@H](C)CO)C(=O)c2cc(Br)cnc2O[C@H]1CN(C)C(=O)C1CC1	-24%	-2	nt	nt	nt	0.0%	nt
COc1cccc(CN(C)C(=O)c2cccc(NC(=O)CC3SC(N4CCCCC4)=NC3=O)c2)c1OC (stereo not drawn)	?	?	-6%	nt	9	-1.6%	nt
